Compound activity deposited in PubChem BioAssay by several laboratories.
XIAP displacement: XIAP antagonists, biochemical, IAP family, fluorescence polarization (AID 1018); XIAP BIR domain, fluorescence polarization peptide displacement; higher % means a stronger effect; one-dose displacement, % at 20 µM; IC50 in µM for titrated hits; actives 0.007% (n = 200,000); in the data active means displacement above about 50%; further: a part of the inactive calls stands beside numbers as strong as those of hits
Yfh1-off respiration: mitochondrial function rescue without frataxin homolog – Friedreich's ataxia, plus single-dose screen, dose response (AID 1465); S. cerevisiae Yfh1-off respiration, WST-1 reduction, 72 h; higher fold induction means a stronger effect; fold induction at 50 µM; hits with a dose series show EC50 in µM; actives 0.074% (n = 220,000);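 active means fold induction of absorbance versus untreated yeast above a set limit, then at least 30% activation at any dose in follow-up; inconclusive means repeats straddling the limit, or above it without dose testing; inactive means fold induction below the set limit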;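 further: activators that raise dye reduction in frataxin-depleted yeast; strong numbers were not always called active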
M1AAP inhibition: malaria alanyl aminopeptidase activity blockers – biochemical, fluorogenic H-Leu-NHMec substrate, 1536-well (AID 1445); recombinant M1AAP, H-Leu-NHMec fluorogenic kinetic assay; higher % means a stronger effect; one-dose inhibition, % at 30 µM; IC50 in µM for titrated hits; actives 0.42% (n = 220,000);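 active means primary inhibition above the hit cutoff, then over 50% inhibition at one or more dose response concentrations, cut at about 23% in these data, passing the limit was not always enough; inconclusive means conflicting primary data, or primary hits not chosen for dose response; inactive means low primary inhibition, or under 50% at every dose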;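 further: plate controls were DMSO full reaction for no effect and no enzyme background for full effect; strong numbers were not always called active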
PhoP inhibition: inhibitors of PhoP regulon expression, primary screen, Salmonella Typhimurium, GFP reporter (AID 1863) | S. Typhimurium PhoP-regulated promoter GFP reporter, 4 h; higher % means a stronger effect | inhibition, % at 50 µM, or IC50 in µM where a hit was titrated | actives 0.16% (n = 300,000);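 active means inhibition over 29.93%, a cutoff 3 SD above the screen mean, later confirmed by dose response; inconclusive means inhibition over 29.93% but no dose response follow-up; inactive means inhibition at most 29.93% or unconfirmed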;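 further: 0% = low Mg2+ inducing control and 100% = high Mg2+ repressing control; strong numbers were not always called active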
P. falciparum M17LAP: P. falciparum M17LAP inhibitors, primary screen, biochemical, fluorogenic H-Leu-NHMec substrate, 1536-well (AID 1619); recombinant M17LAP, H-Leu-NHMec fluorogenic kinetic assay; higher % means a stronger effect; inhibition, % at 30 µM, or IC50 in µM where a hit was titrated; actives 0.38% (n = 220,000);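 active means compound inhibiting the enzyme by more than half at any dose during confirmatory dose-response retesting; inconclusive means strong single-dose inhibitors picked by rank but not retested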;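 further: plate controls were full reaction with DMSO carrier for no effect and no enzyme background for full effect; strong numbers were not always called active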
West Nile virus CPE: inhibition of WNV-induced cytopathic effect – cell-based, CPE readout (AID 1621). CPE inhibition, % at 10 µM; hits with a dose series show IC50 in µM. West Nile virus-infected cells, CPE inhibition; higher % means a stronger effect. actives 0.02% (n = 290,000); in the data active means a potency from the dose series; inconclusive means CPE inhibition mostly from about 3.7% at the one dose, without a potency; inactive means the rest, 99 in 100 with CPE inhibition below about 2.2%; further: strong numbers were not always called active
ER stress rescue: rescue of cells from ER stress-induced death, primary screen, 384-well, CSM14.1, thapsigargin, ATP luminescence (AID 1222); CSM14.1 thapsigargin-induced death rescue, ATP luminescence; higher % means a stronger effect; cellular ATP content (survival), % at 20 µM; hits with a dose series show EC50 in µM; 190,000 tested, under 10 active;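 active means EC50 below 50 µM in the dose-response confirmation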;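 further: death triggered by thapsigargin at about 15 µM added after 2 h compound pretreatment; cell ATP read after overnight thapsigargin exposure of roughly 18 to 22 hours; normalized against plate controls of thapsigargin alone and 5% DMSO vehicle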
SIAH1 antagonists: blockers of Siah-1 interaction with plectin peptide – biochemical, fluorescence polarization, rhodamine-plectin, uHTS, primary screen (AID 1817); Siah-1 / rhodamine-plectin peptide fluorescence polarization; higher % means a stronger effect; displacement, % at 20 µM, or IC50 in µM where a hit was titrated; actives 0.02% (n = 290,000);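 active means displacement of at least 50% at 20 µM, with a fluorescence ratio check between 0.3 and a set limit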;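 further: plate controls were Siah plus tracer with DMSO for no effect and tracer alone without Siah for full effect; strong numbers were not always called active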
An asterisk follows results filed as active; i = inactive; ? = inconclusive; nt = not tested or not shown; & = joins results of further samples.

SMILES | XIAP displacement | Yfh1-off respiration | M1AAP inhibition | PhoP inhibition | P. falciparum M17LAP | West Nile virus CPE | ER stress rescue | SIAH1 antagonists
O=[N+]([O-])c1cc2c(cc1/C=N/Nc1nc(Nc3ccccc3)nc(N3CCCCC3)n1)OCO2 | -1.2% | i | 3% | 5% | 13% | ? | -0.3% | 2%
CC(NC(=O)c1cc2ccccc2o1)C(=O)O (configuration not stated) | -4.2% | i | 0% | -5% | 24% | 0.3% | -0.1% | 1%
CCC(C)C(=O)Nc1nc(-c2ccc3c(c2)NC(=O)CO3)cs1 (configuration not stated) | -3.8% | i | 4% | 4% | -14% | 1.0% | 1.3% | -3%
CCOc1ccccc1OCC(=O)Nc1ccc(Cl)cc1Cl | 0.1% | i | 10% | 5% | -10% | -0.4% | -1.4% | 0%
Fc1cccc(CN2CCCCCCC2)c1 | 1.1% | i | -2% | 2% | 2% | 0.3% | -0.7% | -4%
CN1CC(c2ccccc2Cl)C2(COc3ccccc3C2=O)C12C(=O)Nc1ccccc12 (configuration not stated) | -6.8% | i | -15% | -10% | -6% | ? | 6.9% | 0%
COc1ccc(/C=C/C(=O)NCC(=O)N/N=C/c2cc(Br)ccc2OC)cc1 | -6.4% | i | 5% | -7% | 0% | 0.3% | -1.1% | 4%
CCSc1cc(N2CCCC2)nc(-c2ccc(F)cc2)n1 | -0.2% | i | 5% | 3% | -2% | -0.2% | -1.2% | 3%
CCOC(=O)CNC(=O)CSc1nnc(-c2ccncc2)n1-c1ccc(Cl)cc1 | -0.9% | i | 7% | -3% | 15% | -0.5% | -0.9% | 3%
Cc1nonc1NC(=O)Nc1cccnc1 | -0.9% | i | 2% | 0% | -9% | 0.7% | -1.3% | -1%
Cc1ccnc(NS(=O)(=O)c2ccc(NC(=O)C3CCCNC3=O)cc2)n1 (configuration not stated) | -2.1% | i | 1% | -1% | -4% | 0.8% | -0.7% | 2%
CCc1cc(C(c2ccc(F)cc2)N2CCOCC2)c(NC(=O)c2ccccc2)s1 (configuration not stated) | -5.2% | i | 0% | 6% | -2% | 1.4% | -0.1% | -2%
COc1ccc(C2NC(=S)NC3=C2CCc2cc(OC)ccc23)cc1 (configuration not stated) | -6.7% | i | ? | 9% | 4% | -0.2% | 3.4% | 3%
CC(=O)N1CCN(c2nc3cc4c(cc3nc2NS(=O)(=O)c2ccccc2)OCCO4)CC1 | 3.5% | i | 14% | -6% | -20% | 1.0% | -0.3% | -1%
Cc1cc(OCn2ccc(C(=O)O)n2)ccc1Cl | -5.4% | i | -6% | 16% | 51% | -0.1% | -1.5% | 1%
COc1ccc(C)cc1NC1=C(Cl)C(=O)N(C2CCCCC2)C1=O | -3.9% | i | 2% | -2% | 8% | 0.8% | -1.9% | -1%
CCOC(=O)c1sc(-c2ccc(Br)cc2)cc1N | -3.5% | i | -19% | -7% | 2% | 1.4% | -1.1% | -1%
O=C(c1ccc(Cl)c(S(=O)(=O)NCc2ccccc2)c1)N1CCN(c2ccccn2)CC1 | -4.7% | i | -20% | -1% | 7% | -0.4% | -1.0% | -1%
On1c(-c2ccccc2)nc2ccc(Cl)cc21 | -3.8% | i | 14% | -3% | -4% | -0.8% | -0.4% | 1%
NC(=O)c1ccc(NC(=O)C2CCCO2)cc1 (configuration not stated) | -3.0% | i | 4% | -1% | 2% | -0.1% | 4.9% | -2%
Cc1ccc(C(=O)c2cc([N+](=O)[O-])ccc2N2CCOCC2)c(C)c1 | -4.5% | i | 6% | 17% | 7% | -0.2% | -0.3% | 0%
O=S(=O)(c1ccccc1)n1ccc2cccnc21 | -2.2% | i | 2% | 19% | 7% | -0.2% | 0.8% | 2%
O=C(NCc1cccnc1)C1CC2c3ccccc3C1c1ccccc12 (configuration not stated) | -8.1% | i | 0% | 7% | 3% | -1.2% | 2.2% | -4%
CN(C(=O)CSc1ncccc1C(=O)O)c1ccccc1 | -20% | i | 2% | -8% | 25% | 1.1% | 1.4% | 0%
Cn1cc(C(=O)c2ccc(Cl)cc2)cc1-c1nc2ccccc2n1C | -0.2% | i | 3% | 0% | 1% | 0.0% | -0.2% | 3%
COc1ccc(/C(O)=C2/C(=O)C(=O)N(CC3CCCO3)C2c2cccc(O)c2)cc1 (configuration not stated) | -4.9% | nt | 12% | -7% | 23% | nt | 1.0% | -3%
O=C(NCc1ccccc1C(F)(F)F)C1CC(c2ccccc2[N+](=O)[O-])=NO1 (configuration not stated) | -5.8% | i | -3% | -8%&8% | -2% | -0.1% | 8.4% | 4%
CCC(C)C1NC(=S)N(Cc2ccccc2)C1=O (configuration not stated) | -3.8% | i | 0% | 20% | -6% | 0.7% | 7.2% | 1%
COc1ccccc1OC(C)c1nnc(SCC(=O)Nc2c(C)n(C)n(-c3ccccc3)c2=O)n1-c1ccccc1 (configuration not stated) | -5.4% | i | 2% | 3% | -4% | nt | -2.2% | -2%
COc1ccc(CN2CCN(C(=O)c3cccs3)CC2)cc1Br | -5.1% | i | -6% | 1% | 1% | -0.2% | -0.6% | 2%
COc1ccc(-n2c(C)n[nH]c2=O)cc1 | -2.1% | i | 7% | 5% | 5% | 0.2% | -3.4% | 3%
CCC(=O)Nc1ccc(C(=O)Nc2ccc3c(c2)OCO3)cc1 | -0.5% | i | 4% | 13% | 7% | 0.0% | -0.7% | -3%
CC(=O)Nc1ccccc1C(=O)C(=O)Nc1ccc(F)cc1 | -0.4% | i | 3% | 0% | -4% | 0.1% | -2.2% | 2%
CC(C)Nc1cc(N2CCCC2)ccc1[N+](=O)[O-] | -3.1% | i | 3% | -4% | -4% | -0.2% | -1.3% | 0%
CSc1ncc(C(=O)O)c(C)n1 | 1.2% | i | 4% | -7% | 6% | -0.1% | -0.2% | 1%
Cc1cc(=O)oc(C)c1C(=O)N1CCCc2ccccc21 | -4.0% | i | 1% | 6% | 4% | -0.5% | 2.7% | -1%
CN=C(Nc1cc(C)nn1-c1ccccc1)c1ccccc1F | -1.7% | i | 3% | -1% | 0% | 0.4% | 0.1% | 10%
Cc1c(C(=O)NC(C)CCc2ccccc2)cccc1[N+](=O)[O-] (configuration not stated) | 8.0% | i | 7% | 20% | -1% | -1.0% | -0.9% | 1%
Cc1ccc(Cn2nc(-c3ccccc3)nc2-c2ccccc2)cc1 | -1.6% | nt | -1% | -2% | -9% | nt | 0.4% | -5%
NS(=O)(=O)c1ccc(NC(=O)c2ccccc2C(=O)N2CCCCC2)cc1 | 0.2% | i | 2% | -1% | 1% | 0.1% | -1.0% | 1%
O=c1nc(-c2ccccc2)n(-c2ccccc2)c2ncccc12 | -2.1% | i | 15% | 15% | 11% | -0.2% | -1.2% | -2%
COc1ccc(-c2cc(=O)oc3cc4occ(C)c4cc23)cc1 | -6.7% | i | 6% | 0% | -5% | 0.4% | 2.6% | 0%
COc1ccc(C(=O)NC(NC(=S)Nc2ccc(S(N)(=O)=O)cc2)C(Cl)(Cl)Cl)cc1 (configuration not stated) | -2.5% | i | 10% | -1% | -4% | -0.5% | -1.4% | 6%
Cc1ccccc1CSCCNC(=O)CSCc1ccc([N+](=O)[O-])cc1 | -22% | nt | 6% | 0% | 4% | nt | -1.9% | 1%
NC(=O)C1CCN(C(=O)CCc2nc3ccccc3c(=O)[nH]2)CC1 | -30% | i | 2% | 0% | -2% | 0.2% | -0.5% | 0%
Clc1ccc(N2N=C(c3cccs3)CC2c2ccco2)cc1 (configuration not stated) | -3.9% | i | 4% | -5% | -1% | -0.1% | -0.9% | -2%
O=C(c1ccco1)N1CCN(S(=O)(=O)c2ccc3[nH]c(=O)oc3c2)CC1 | -3.0% | i | 6% | -2% | -1% | 0.2% | -1.3% | 5%
CC(C)(C)c1nc(SCC(=O)Nc2ccc3c(c2)OCCO3)c2ccccc2n1 | -4.0% | i | -2% | 3% | 8% | -0.4% | 1.5% | -2%
CC(=O)Nc1ccc(S(=O)(=O)N2CCN(c3nc(NC4CCCC4)c4ccccc4n3)CC2)cc1 | -6.0% | i | 3% | 5% | 0% | 0.3% | -1.9% | -1%
CC12CCC(C(=O)N(CC(O)CN3CCCCC3)C1=O)C2(C)C (configuration not stated) | -3.6% | i | 5% | 3% | -4% | -0.2% | -2.9% | -5%
COc1ccc(CN2C(=O)c3ccccc3C(/C=N\OCc3ccc(F)cc3)C2=O)cc1 (configuration not stated) | 0.8% | i | 6% | 0% | -13% | 0.1% | 8.0% | 4%
COC(=O)c1cc(Cl)c(NC(=O)c2cc3ccccc3o2)cc1OC | -3.7% | i | 7% | -1% | -2% | 0.6% | -0.3% | -5%
Cc1sc2c(c1C)CN(C(C)(C)C)CN2C(=O)c1ccccc1 | -14% | i | 13% | 5% | 13% | -0.3% | -2.6% | 4%
CCC(C)(C(=O)NC1CCCCC1)N(Cc1ccco1)C(=O)Cc1cccs1 (configuration not stated) | -2.7% | i | 7% | 8% | -8% | -0.7% | -0.8% | -1%
Cc1ccccc1-c1noc(-c2ccc(Cl)cc2)n1 | -1.5% | i | -1% | 3% | 6% | 0.0% | -2.4% | 3%
CCOC(=O)C1=C(C)N=C2SC(C(=O)OC)=CC(=O)N2C1c1cccc(OC)c1 (configuration not stated) | -8.2% | i | 6% | -7% | 10% | 0.3% | -1.6% | -6%
C/C(CC1CC2=C(CC1(C)C)C(C)(C)CCC2)=N\NC(N)=S (configuration not stated) | -7.4% | i | -2% | 7% | 0% | ? | -0.9% | 3%
CC(=O)NCCc1cc2cc(C)c(C)cc2[nH]c1=O | -0.7% | nt | 3% | -1% | -6% | nt | -1.3% | 2%
Cn1c(-c2ccc[nH]c2=O)nc2cc(Cl)ccc21 | -4.9% | i | 3% | 7% | -3% | 0.5% | -4.0% | 2%
CC(=O)Nc1ccc(-c2ccccc2)s1 | -5.5% | i | 25%* | 15% | -13% | 0.2% | 1.4% | 3%
More compounds follow:
SMILES | XIAP displacement | Yfh1-off respiration | M1AAP inhibition | PhoP inhibition | P. falciparum M17LAP | West Nile virus CPE | ER stress rescue | SIAH1 antagonists
CCOC(=O)C1=C(C)NC(SCC(N)=O)=C(C#N)C1c1ccccc1 (configuration not stated) | -1.7% | i | 7% | 3% | 21% | 0.3% | -1.3% | 5%
Cc1nc(NCC2CCCO2)[nH]c(=O)c1CCC(C)C (configuration not stated) | -2.4% | i | 6% | -7% | 0% | 0.1% | 0.7% | 2%
O=C(NCCCn1ccnc1)c1ccc(S(=O)(=O)N2CCCCCC2)cc1 | -4.9% | i | 3% | 4% | 2% | 0.1% | -0.3% | 3%
Cc1sc2c(c1C)c(=O)n(-c1ccccc1)c1nnc(C)n21 | -1.0% | i | 2% | 2% | 11% | 0.0% | 5.4% | 1%
O=C(/C=C1\NCC2c3ccccc3CCN2C1=O)c1ccccc1 (configuration not stated) | -3.4% | i | 4% | 0% | -8% | -0.7% | -1.8% | 0%
COc1ccccc1NC(=O)C1=C(C)Nc2nnnn2C1c1cc(Br)ccc1OC (configuration not stated) | -2.4% | i | 2% | -2% | -9% | 0.2% | -1.0% | 0%
O=C(NCCNC(=O)c1cc(OCC(F)(F)F)ccc1OCC(F)(F)F)Nc1ccc(OC(F)(F)F)cc1 | -2.7% | i | 6% | 6% | -9% | -0.4% | -0.3% | 7%

These rows are one share of the data. The share of hits here may be higher or lower than overall.
